Screening results from PubChem.
GALR2 agonist – GALR2 receptor agonists, primary screen, cell-based | 140,000 compounds, 0.48% hits | Galanin receptor type 2 (Homo sapiens), O43603 | activation, %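 (tested at 5 µM)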 | GALR2-expressing cells, agonist activation read-out;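 active = above mean plus 3 SD of all compounds, about 5% in these data, not always enough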;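 also: 0% = vehicle buffer wells and 100% = reference agonist at full effect; tested in CHO reporter cells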
Insulin prom inh – inhibitors of insulin promoter-driven GFP, primary screen, imaging, TRM-6 cells (human fetal islet line), eGFP reporter, cell count; 130,000 compounds, 0.9% hits; reporter expression induced with tamoxifen; inhibition, % at 2 µM; AID 1273, 2008;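 active = inhibition above the mean plus 3 SD, with well images judged a real hit on visual review, cut at about 60% in these data, passing the limit was not always enough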
PKD1 kinase inh – inhibitors of human PKD1 kinase, biochemical, fluorescence polarization; PKD1 kinase fluorescence polarization assay; inhibition, %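 (about 10 µM by stock and volumes)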; AID 797, 2007; Serine/threonine-protein kinase D1 (Homo sapiens), Q15139; 200,000 compounds, 0.056% hits;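 active = inhibition of 50% or more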;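 also: controls were vehicle for no effect and a reference inhibitor for full effect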
Target sequence (Q15139 whole entry, looked up): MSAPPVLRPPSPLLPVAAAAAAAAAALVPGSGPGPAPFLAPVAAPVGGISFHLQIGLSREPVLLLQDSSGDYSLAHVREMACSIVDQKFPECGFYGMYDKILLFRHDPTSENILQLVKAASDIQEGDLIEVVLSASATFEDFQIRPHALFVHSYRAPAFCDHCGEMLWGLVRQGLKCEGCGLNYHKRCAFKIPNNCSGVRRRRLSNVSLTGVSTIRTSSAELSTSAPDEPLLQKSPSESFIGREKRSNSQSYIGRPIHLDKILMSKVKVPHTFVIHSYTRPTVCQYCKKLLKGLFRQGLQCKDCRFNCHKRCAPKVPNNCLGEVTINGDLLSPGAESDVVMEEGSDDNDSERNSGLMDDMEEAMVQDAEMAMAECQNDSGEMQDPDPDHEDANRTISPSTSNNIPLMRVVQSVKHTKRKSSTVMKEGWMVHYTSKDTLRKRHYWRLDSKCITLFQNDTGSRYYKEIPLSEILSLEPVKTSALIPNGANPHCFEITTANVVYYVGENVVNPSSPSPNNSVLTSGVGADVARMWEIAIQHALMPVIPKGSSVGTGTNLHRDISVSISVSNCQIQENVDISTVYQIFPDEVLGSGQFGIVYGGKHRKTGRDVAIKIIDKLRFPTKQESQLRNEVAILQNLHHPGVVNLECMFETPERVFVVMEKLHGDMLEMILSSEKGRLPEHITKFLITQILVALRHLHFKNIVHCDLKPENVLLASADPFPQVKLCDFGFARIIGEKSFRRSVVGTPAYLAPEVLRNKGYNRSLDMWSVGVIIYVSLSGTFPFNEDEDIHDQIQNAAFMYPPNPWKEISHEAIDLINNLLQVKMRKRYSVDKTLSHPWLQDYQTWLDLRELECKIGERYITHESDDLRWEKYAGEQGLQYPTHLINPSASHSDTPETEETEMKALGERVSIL
RGS16-Gao – modulators of RGS16 binding to Galphao, primary screen, biochemical, human proteins, multiplexed bead flow cytometry; Regulator of G-protein signaling 16 (Homo sapiens) + Guanine nucleotide-binding protein …; bead-based flow cytometry RGS16-Galphao binding, fluorescence; actives lie on both sides; binding response (% of control), % at 10 µM; 220,000 compounds, 0.38% hits;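 active = below 25% or above 175%, edge rows of some plates excepted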;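 also: Galphao activated by GDP with aluminum fluoride before binding; 100% = wells without compound and 0% = beads without RGS; some results beyond the cut were filed as inactive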
HSV replic up – enhancers of HSV replication in host cells, fold increase, host cell viability; HSV replication augmentation in cells; maximum fold increase; 220,000 compounds, 0.005% hits; AID 1956, 2009;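 active = peak rise of 1.5-fold or more in the series; tested in PC3 cells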;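 also: first round at 10 µM; read as green reporter fluorescence; hits show the peak of a series up to 25 µM; 1 = signal of infected wells without compound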
Insulin prom inh cell count – also measured in Insulin prom inh; calls as there; normalized cell count, %; measured here: cell count, toxicity; reference of the scale not given here;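 cells exposed to compound for 48 h; stained nuclei by imaging scaled within each plate; lower means fewer cells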
HSV replic up primary fold – further read-out of HSV replic up, marked with its call; fold increase; compound at 10 µM; measured here: primary screen fold increase 10 uM; tested in PC3 cells;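 GFP signal in the first replicate; 1 = infected wells without compound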
Active calls of the source: *; i = inactive; x = not tested or not shown.

SMILES	GALR2 agonist	Insulin prom inh	Insulin prom inh cell count	PKD1 kinase inh	RGS16-Gao	HSV replic up	HSV replic up primary fold
CCCOc1ccc(C(=O)C(c2ccccc2)N2CCOCC2)cc1 (configuration not stated)	-1.2	-60	91	4	59	i	0.95
CC(CCc1ccccc1)NC(=O)C(=O)Nc1ccccc1 (configuration not stated)	-0.4	16	105	-5	115	i	0.91
Cc1c(NS(=O)(=O)c2ccc(NC3CCCC3)c([N+](=O)[O-])c2)c(=O)n(-c2ccccc2)n1C	0.8	x	x	-18	100	i	1
Cc1sc2ncnc(N3CCCCC3)c2c1C	3.0	x	x	-5	101	i	1.4
Cc1cc(C)nc(N2CCCC(C(=O)NC(C)C)C2)n1 (configuration not stated)	x	x	x	-12	108	i	1
C[C@@H]1C[C@@H]2OC(=O)[C@]3(C)[C@H]2[C@@H](OC3(C)O)[C@]2(C)C(=O)CC[C@H]12 (some centres not stated)	x	x	x	x	105	i	0.97
COC(=O)c1cccc(C(=O)Nc2ccc(C)cc2)n1	-1.6	-18	129	-4	98	i	0.82
CC(C)(C)c1ccc(-c2nnc(N)s2)cc1	x	x	x	-4	100	i	1.1
COc1cc2c(cc1NC(=O)c1cc(-c3cccnc3)nc3ccc(C)cc13)oc1ccccc12	-1.5	x	x	-10	69	i	0.84
COc1ccccc1-c1cnnc(N/N=C/c2ccc(-c3cccc(Br)c3)o2)n1	-2.5	16	101	3	101	i	0.64
CC(=O)n1cc(/C=N/NC(=O)c2sc(C)nc2C)c2ccccc21	-0.2	-33	113	-7	104	i	0.83
CC(C)C[C@H](NC(=O)OC(C)(C)C)c1nnc(SCc2ccccc2)o1	-0.7	-50	103	2	101	i	1.1
COc1cccc(NC(=O)c2nc3ncccn3n2)c1	1.8	-28	84	6	102	i	1
O=C(CN1C(=O)C2CCCCC2C1=O)Nc1ccc(S(=O)(=O)Nc2ncccn2)cc1 (configuration not stated)	x	-38	153	0	94	i	1
CC(C)(C)NCc1cc(Cl)ccc1OCc1ccccc1F	x	-33	77	-12	99	i	0.8
CC1=C(C(=O)OCC2CCCO2)C(c2ccsc2)C2=C(CC(C)(C)CC2=O)N1 (configuration not stated)	x	-191	79	-4	103	i	1
O=c1ccc2cc(S(=O)(=O)N3CCOCC3)ccc2o1	-1.9	44	113	-4	87	i	0.91
CC(C)(C)c1ccc(C(=O)NCCN2CCCC2)cc1	x	x	x	-4	96	i	0.95
CSc1ccc(CN2CCN(C(=O)c3ccncc3)CC2)cc1	x	x	x	6	165	i	1
COc1ccccc1NC(=O)Nc1nnc(-c2ccco2)s1	-0.9	x	x	1	104	x	x
CC(=O)Nc1ccc(NC(=O)COc2ccc(Br)cc2C)cc1	-1.8	27	214	1	109	i	0.88
O=C(O)c1ccc(S(=O)(=O)N2CCC(c3nc(-c4ccccc4Cl)no3)CC2)cc1	-1.7	x	x	-6	100	i	1
COc1ccc(NS(=O)(=O)c2csc(C(=O)Nc3ccccc3)c2)cc1	x	11	106	2	105	i	0.99
CCCc1nn(C)c2c1C(c1cccnc1)C(C#N)=C(N)O2 (configuration not stated)	-1.1	-20	77	-2	115	i	0.84
Cc1ccccc1NC(=O)N1CCCC(c2nc(-c3ccc(F)cc3)no2)C1 (configuration not stated)	-3.1	x	x	-1	102	i	0.94
O=C1CN(C(=O)/C=C/c2ccc(Cl)cc2Cl)CCN1	x	57	96	4	100	i	0.95
COc1ccc(C2CCCN2C(=S)Nc2cccc(Cl)c2C)cc1OC (configuration not stated)	x	x	x	8	101	i	0.87
CCC(=O)Nc1cc2c(cc1C(=O)c1ccccc1)OCCO2	-0.9	x	x	-3	102	i	0.97
NC(=S)N/N=C/c1ccc(-c2ccc([N+](=O)[O-])cc2)o1	x	x	x	-1	93	i	1
CCOC(=O)C1=C(CN2CCc3ccccc32)NC(=O)NC1c1cccc([N+](=O)[O-])c1 (configuration not stated)	0.5	21	116	-5	107	i	1
CCC(c1nnnn1C(C)(C)C)N(CCOC)Cc1cc2cccc(C)c2n2nnnc12 (configuration not stated)	-0.9	-43	120	2	104	i	0.94
CC1(C)CC(CCC(=O)Nc2ccc(S(N)(=O)=O)cc2)C(=O)O1 (configuration not stated)	-0.9	x	x	10	102	i	0.87
CCCSc1cc(Cl)nc(N)n1	x	x	x	x	103	i	1
COc1ccc(C(=O)NNC2CC(=O)N(Cc3ccccc3)C2=O)cc1OC (configuration not stated)	-1.3	7	136	-9	99	i	0.96
COc1nccnc1NS(=O)(=O)c1ccc(NC(=S)NC(=O)c2cccnc2)cc1	x	x	x	x	93	i	1
NC(=O)c1ccc(-n2nnnc2Oc2ccccc2)cc1	-1.6	59	130	-12	98	i	1.2
O=C(COc1ccccc1[N+](=O)[O-])N1CCC(Cc2ccccc2)CC1	x	0	71	-12	106	i	0.9
O=C(Oc1ccc(NC2=NS(=O)(=O)c3ccccc32)cc1)c1cccnc1	x	0	178	-2	106	i	0.94
COc1cc(CO)cc(Br)c1OCC(=O)N1CCCCC1	-1.4	39	120	1	97	i	0.89
O=C(NCc1ccc(Cl)cc1)c1cnn2ccccc12	-3.2	x	x	-2	104	i	0.97

Molecules above with an aryl thioether with sulfur outside any ring, in the order listed:
SMILES	GALR2 agonist	Insulin prom inh	Insulin prom inh cell count	PKD1 kinase inh	RGS16-Gao	HSV replic up	HSV replic up primary fold
CC(C)C[C@H](NC(=O)OC(C)(C)C)c1nnc(SCc2ccccc2)o1	-0.7	-50	103	2	101	i	1.1
CSc1ccc(CN2CCN(C(=O)c3ccncc3)CC2)cc1	x	x	x	6	165	i	1
CCCSc1cc(Cl)nc(N)n1	x	x	x	x	103	i	1

Continued:
SMILES	GALR2 agonist	Insulin prom inh	Insulin prom inh cell count	PKD1 kinase inh	RGS16-Gao	HSV replic up	HSV replic up primary fold
O=C(Cc1cccc2ccccc12)Nc1nnc(-c2cccc([N+](=O)[O-])c2)s1	-0.6	-245	30	-14	106	i	0.86
CC(C)NC(=O)N(Cc1ccc(Cl)cc1)Cc1cccs1	x	x	x	x	98	i	1.1
Cn1c(CNC2CCCCC2)nc2ccccc21	x	x	x	-8	101	i	1.1
CC(=O)N1CCC(=NNc2ncc(C(F)(F)F)cc2Cl)CC1	x	x	x	3	104	i	0.89
COc1ccc(CCNC(=O)Cn2c(=O)n(CC3CCCO3)c(=O)c3ccccc32)cc1OC (configuration not stated)	x	-50	79	-2	115	i	1.1
Cc1ccc(C)c(N/N=C2\CCCNC2=O)c1	-1.8	0	77	2	100	i	1
COC(=O)c1cc(=O)nc2sc(-c3ccccc3)nn12	-1.2	x	x	-2	102	i	1.1
O=C(Nc1ccc(S(=O)(=O)Nc2ncccn2)cc1)c1nn(Cc2ccccc2)c(=O)c2ccccc12	x	x	x	x	101	i	0.95
C/C(=N/O)c1no[n+]([O-])c1/C(C)=N\O	x	x	x	x	94	i	1
COc1ccc(-c2nc(CN3CCN(c4ncccn4)CC3)c(C)o2)cc1C	x	-12	104	-2	99	i	0.97

Reprinted from the part before: 6 entries; new compounds follow.
SMILES	GALR2 agonist	Insulin prom inh	Insulin prom inh cell count	PKD1 kinase inh	RGS16-Gao	HSV replic up	HSV replic up primary fold
COc1ccc(CCNC(=O)Cn2c(=O)n(CC3CCCO3)c(=O)c3ccccc32)cc1OC (configuration not stated)	x	-50	79	-2	115	i	1.1
Cc1ccc(C)c(N/N=C2\CCCNC2=O)c1	-1.8	0	77	2	100	i	1
COC(=O)c1cc(=O)nc2sc(-c3ccccc3)nn12	-1.2	x	x	-2	102	i	1.1
O=C(Nc1ccc(S(=O)(=O)Nc2ncccn2)cc1)c1nn(Cc2ccccc2)c(=O)c2ccccc12	x	x	x	x	101	i	0.95
C/C(=N/O)c1no[n+]([O-])c1/C(C)=N\O	x	x	x	x	94	i	1
COc1ccc(-c2nc(CN3CCN(c4ncccn4)CC3)c(C)o2)cc1C	x	-12	104	-2	99	i	0.97
COc1ccc(C(=O)N2CCN(S(=O)(=O)c3ccc(Cl)cc3)CC2)cc1OC	-0.7	-34	93	-4	102	i	0.85
COc1cccc(-c2cc(C(=O)Nc3ccc([N+](=O)[O-])cn3)c3ccccc3n2)c1	-0.1	x	x	5	102	i	0.88
Cc1ccc2cccc(OCC(=O)c3cc(C)n(Cc4ccco4)c3C)c2n1	x	x	x	-8	99	i	1.1
CC1(C2(O)CC(c3ccccc3)ON2)CCCCC1 (configuration not stated)	-1.9	48	125	-9	101	i	0.96
CCOc1ccc(C(C(=O)NC2CCCC2)N(Cc2ccccc2)C(=O)c2nsc(Cl)c2Cl)cc1 (configuration not stated)	-1.6	-15	48	4	99	i	0.91
O=C(CCc1ccccc1)Nc1nc2n(n1)C(c1ccccc1)CC(=O)N2 (configuration not stated)	0.5	-7	118	9	98	i	0.82
O=C(CCNC(=O)c1ccco1)Nc1ccc(N2CCOCC2)cc1	x	7	73	3	93	i	0.78
CCCCN(C(=O)c1ccc(OC(F)(F)F)cc1)c1c(N)n(CCC)c(=O)[nH]c1=O	x	28	48	-9	109	i	0.97
COc1ccc(C/C(N)=N/n2cnnc2)cc1Cl	1.6	3	162	-8	104	i	0.86
N#Cc1ccc(-n2nccc2-c2cnc3n(c2=O)CCS3)cc1	-2.9	14	164	-14	104	i	1
COc1ccc(S(=O)(=O)Nc2ccccc2C(=O)Nc2nc(-c3ccc(F)cc3)cs2)cc1OC	-0.6	11	170	4	105	i	0.8
CC(CCc1ccccc1)NC(=O)CN1CCN(Cc2ccc(Cl)cc2)C1=O (configuration not stated)	-0.9	x	x	-7	100	i	0.96
CC(=O)NC(Cc1cccc(F)c1)C(=O)NC1CCN(C(=O)c2ccc(C)cc2)CC1 (configuration not stated)	x	-5	52	-8	95	i	0.99
Cc1ccc(NC(=O)NCc2ccc3[nH]c(C)cc3c2)cc1	x	33	38	-5	139	i	0.78
CNC(=S)Nc1cccc(C(C)=O)c1	x	x	x	8	99	i	0.97
CC(=O)OCC1=C(C(=O)O)N2C(=O)C(NC(=O)C(C)Cn3nc(C)c(Cl)c3C)C2SC1 (configuration not stated)	x	x	x	-5	100	i	0.99
CCOCCn1c(N(C)Cc2ccccc2)nc2c1c(=O)[nH]c(=O)n2C	-0.8	18	104	-10	104	i	0.99
O=C(CSCc1ccccc1)NC1CCSC1=O (configuration not stated)	0.7	-13	161	-10	102	i	0.99
COc1cccc(C2CC(c3ccccc3Cl)Nc3ncnn32)c1 (configuration not stated)	-0.6	24	28	-1	x	x	x
O=C1Nc2cc(C(=O)N3CCc4ccccc4C3)ccc2S/C1=C\c1ccccc1	-2.0	7	66	5	42	i	0.86
O=C(NCCO)c1ccc2[nH]c3c(c2c1)CCCC3	-2.0	x	x	8	94	i	0.84
O=C(N/N=C/c1ccco1)C1CC1c1ccccc1 (configuration not stated)	-0.6	-17	95	-13	97	i	1
Cc1ccc(NC(=O)c2ccc(CN3CCc4ccccc4C3)cc2)cc1	-1.4	x	x	10	101	x	x
O=C1Nc2ccc([N+](=O)[O-])cc2C1(O)N1CCCCCC1 (configuration not stated)	0.9	2	52	4	104	i	0.81
COCCCNC(=O)CN(CCc1ccccc1)S(=O)(=O)c1ccccc1	x	-5	114	-6	110	i	0.94
CCOCCn1c(SCc2c(F)cccc2Cl)nc2c1c(=O)[nH]c(=O)n2C	-3.2	60	98	7	100	i	0.91
Cc1ccc(-c2cc(C(F)F)n3ncc(C(=O)N4CCN5CCCC5C4)c3n2)cc1 (configuration not stated)	-1.0	-7	78	-7	105	i	0.99
CCOC(=O)C1=C(C)Nc2nc(C)nn2C1c1ccc(OC)c(OC)c1 (configuration not stated)	-1.9	-22	26	-9	100	x	x
COc1ccccc1-n1c([S-])c(C(=O)Nc2ccccc2C(F)(F)F)[n+]2ccc(C(=O)NCCO)cc12	x	x	x	-5	101	i	0.99
Cc1ccccc1-n1nc2c(c1NC(=O)c1cccc(F)c1)CS(=O)C2 (configuration not stated)	-5.3	x	x	7	98	i	0.72
C=CCNC(=O)NC(=O)COC(=O)/C(C#N)=C/c1cc(C)n(CCC(C)C)c1C	-1.6	-21	45	1	102	i	0.94
Cc1sc(NC(=O)c2ccco2)c(C(c2cccnc2)N2CCC(C)CC2)c1C (configuration not stated)	-1.7	54	107	-8	133	i	0.84
COc1ccc(C(=O)c2ccccc2)cc1Br	-2.1	40	86	3	105	i	0.72
